Assay outcomes as filed in PubChem BioAssay.
Sa helicase inh: S. aureus DNA helicase inhibition; purified S. aureus helicase, fluorescence unwinding assay; about half of the hits fall short of the stated cut; inhibition, %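 (tested at about 80 µM)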; 120,000 tested, 0.05% active; AID 485395;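 active means both duplicates at 50% or more, or one of them with a favoured structure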;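 further: 0% = mean of negative control wells and 100% = mean of positive control wells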
MgrA-DNA mod: alters Staphylococcus aureus MgrA binding to DNA; fluorescence polarization; inhibition, %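 (about 10 µg/mL by stock and volumes)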; 84,000 tested, 0.13% active; AID 602314;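 active means above 50% in either of two replicates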;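 further: 0% = protein plus DNA without compound and 100% = DNA alone without protein; higher means less MgrA bound to DNA so lower polarization; one replicate is shown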
Starred values were filed as active, the others as inactive.

Results for CCOc1ccc2oc(=O)cc(CN3CCN(C(=O)c4ccc5c(c4)OCO5)CC3)c2c1 ?
Sa helicase inh: -12

What do the screens show for `Brc1ccc(CNc2ccc3c(c2)ncn3-c2ccccc2)cc1`?
Sa helicase inh: 8; MgrA-DNA mod: 2.2

What do the screens show for `CC(NC(=O)C1CCCN(S(=O)(=O)c2cccc3nonc23)C1)c1ccccc1` (centres undefined)?
Sa helicase inh: 4; MgrA-DNA mod: -0.1

Results for CCn1cc(CCCC(=O)NC(C)C)c2ccccc21 ?
Sa helicase inh: 34

Results for CCOCCOC(=O)C1=C(C)NC2=C(C(=O)CC(c3ccccc3)C2)C1c1ccc(OC)cc1OC (centres undefined) ?
MgrA-DNA mod: -0.8

Results for COc1ccc(C2CC(=O)c3c(SCc4ccccc4)sc(C#N)c3C2)cc1 (centres undefined) ?
MgrA-DNA mod: 5.7

What do the screens show for `Cc1ccccc1-c1nc2sc(C)c(C)c2c(=O)o1`?
Sa helicase inh: 26; MgrA-DNA mod: 2.1

What do the screens show for `O=C(N=S1CCN(C(=O)c2ccc(Cl)cc2)CC1)c1ccc(Cl)cc1`?
MgrA-DNA mod: -2.3

How did CC(C)(C)c1ccc(CN2C3=NC(=O)CN3c3ccccc32)cc1 do in these assays?
Sa helicase inh: -2

What do the screens show for `CCN1CCN(c2ccc(NC(=O)Cc3ccsc3)cc2)CC1`?
Sa helicase inh: -2

Quoted at random: two compounds from above, in no set order.
What do the screens show for `CC(NC(=O)C1CCCN(S(=O)(=O)c2cccc3nonc23)C1)c1ccccc1` (centres undefined)?
Sa helicase inh: 4; MgrA-DNA mod: -0.1

What do the screens show for `O=C(N=S1CCN(C(=O)c2ccc(Cl)cc2)CC1)c1ccc(Cl)cc1`?
MgrA-DNA mod: -2.3

Next section
Results for CCn1c(SCC(=O)Nc2ccc(S(=O)(=O)N3CCCC3)cc2)nnc1-c1ccccc1 ?
Sa helicase inh: 7

How did O=C(CN1CCN(Cc2ccccc2)CC1)NN=C/C=C\c1ccco1 do in these assays?
Sa helicase inh: 24

Results for CCOc1ccccc1NC(=O)COC(=O)CCN1C(=O)C2CC=CCC2C1=O (centres undefined) ?
Sa helicase inh: 16

How did CN1C(=O)/C(=C(/C#N)C(=O)NCc2ccc(Cl)cc2)c2ccccc21 do in these assays?
Sa helicase inh: -18; MgrA-DNA mod: -0.4

What do the screens show for `O=C(Cc1ccc(Cl)cc1)Nc1cccc2nsnc12`?
Sa helicase inh: -20

What do the screens show for `CS/C(=N\S(=O)(=O)c1cccs1)Nc1ccc(F)cc1`?
Sa helicase inh: 1

Results for O=C(Nc1cc(C(F)(F)F)ccc1Br)c1ccccc1F ?
Sa helicase inh: 10; MgrA-DNA mod: -2.4

How did COc1ccc(S(=O)(=O)NC(N)=NCCc2ccc(Cl)cc2)cc1OC do in these assays?
Sa helicase inh: 3

What do the screens show for `Cc1c(SC(F)F)cc(SC(F)F)cc1SC(F)F`?
Sa helicase inh: 17

What do the screens show for `Cc1noc(C)c1COc1cccc(C(=O)N[C@@H](Cc2ccccc2)c2nc3ccccc3[nH]2)c1`?
Sa helicase inh: 8

The closing two entries of the section above come first, to join the parts.
What do the screens show for `Cc1c(SC(F)F)cc(SC(F)F)cc1SC(F)F`?
Sa helicase inh: 17

What do the screens show for `Cc1noc(C)c1COc1cccc(C(=O)N[C@@H](Cc2ccccc2)c2nc3ccccc3[nH]2)c1`?
Sa helicase inh: 8

Results for O=C(OCc1ccccc1)c1cc2ccccc2[nH]1 ?
Sa helicase inh: 23

Results for COc1ccccc1NC(=O)C(C)OC(=O)c1ccc(NS(=O)(=O)c2ccc3[nH]c(=O)[nH]c3c2)cc1 (centres undefined) ?
Sa helicase inh: -4

How did S=c1[nH]n(Cc2ccccc2)c(=NCc2ccccc2)s1 do in these assays?
Sa helicase inh: -10; MgrA-DNA mod: 3.4

How did CC1=CC(C)(C)N(Cc2ccccc2)c2ccccc21 do in these assays?
Sa helicase inh: 6; MgrA-DNA mod: -0.7

Results for COc1ccc(-c2c(C)c3ccc(O)cc3oc2=O)cc1OC ?
Sa helicase inh: 16

What do the screens show for `O=C(NCCN1CCOCC1)c1csc2c1CCCC2`?
Sa helicase inh: 17

What do the screens show for `COc1ccc(NS(=O)(=O)c2ccc3c(c2)CCO3)cc1`?
Sa helicase inh: -3

What do the screens show for `O=C(NCCCn1ccnc1)c1ccc(Oc2ccccc2)cc1`?
Sa helicase inh: -12; MgrA-DNA mod: 2.8

How did CCN1C(=O)c2ccccc2Sc2ccc(C(=O)NCCc3ccccc3)cc21 do in these assays?
Sa helicase inh: 9; MgrA-DNA mod: -0.2

Results for O=C(CNC(=O)c1cccs1)NCc1cccs1 ?
Sa helicase inh: 11; MgrA-DNA mod: -1.1

How did S=c1cc(-c2ccccc2)oc(-c2ccccc2)c1 do in these assays?
Sa helicase inh: 5; MgrA-DNA mod: 3.0

What do the screens show for `O=C(COC(=O)/C=C/c1ccc(Br)o1)Nc1ccccc1`?
Sa helicase inh: 11; MgrA-DNA mod: -0.9

Results for O=C1c2ccccc2C(=O)N1CCc1ncn[nH]1 ?
Sa helicase inh: 0

How did CCC(C(=O)Nc1ccccc1OC)n1c(C(=O)OC)cc2ccsc21 (centres undefined) do in these assays?
Sa helicase inh: 14

Results for COc1cccc(NC(=O)CSc2cccc[n+]2[O-])c1 ?
Sa helicase inh: -13

What do the screens show for `COC(=O)c1cc(NC(=O)c2c(-c3ccccc3)noc2C)cc(C(=O)OC)c1`?
Sa helicase inh: -26

What do the screens show for `Cc1c(C(=O)O)oc2ccc3c(c12)C(O)CC1(CCCC1)O3` (centres undefined)?
Sa helicase inh: -26

How did CCCCN(CC)S(=O)(=O)c1c(C)[nH]c(=O)[nH]c1=O do in these assays?
Sa helicase inh: 4; MgrA-DNA mod: -6.1

What do the screens show for `O=c1cc(CO)oc(C(Nc2ccccn2)c2ccccc2O)c1O` (centres undefined)?
Sa helicase inh: 5; MgrA-DNA mod: 2.5

What do the screens show for `CCCCC1=NN2C(=N)/C(=C\c3cccn3-c3ccc(OC)c(Cl)c3)C(=O)N=C2S1`?
Sa helicase inh: -20

Results for COCc1cc(=O)oc2n[nH]c(C)c12 ?
MgrA-DNA mod: -2.0

How did COc1c(CO)cc(CO)cc(CO)c1=O do in these assays?
Sa helicase inh: 9

How did O=C(NCCc1ccc(Cl)cc1)C1CCCO1 (centres undefined) do in these assays?
Sa helicase inh: 10

What do the screens show for `O=C1c2ccccc2C(=O)N1CCc1nc(=S)[nH][nH]1`?
Sa helicase inh: 8; MgrA-DNA mod: 3.0

Results for Cc1ccc(-c2csc(NC(=O)CSC(C)(C)C)n2)o1 ?
Sa helicase inh: -8

Results for O=C(Nc1ccc(O)c(-c2nc3ccccc3o2)c1)C1(c2ccccc2)CCCC1 ?
Sa helicase inh: 11; MgrA-DNA mod: -0.3

What do the screens show for `Cc1sc(N2CCOCC2)nc1-c1ccc(-c2ccccc2F)cc1`?
MgrA-DNA mod: 2.9

How did CCC(C)NC(=O)C1CCC(=O)N(c2ccc(OC)cc2)C1c1ccc(OC)c(OC)c1 (centres undefined) do in these assays?
Sa helicase inh: 36

Results for Cc1ccc(C2N=C3C=C(NC(=O)c4cccnc4)C=CC3O2)cc1C (centres undefined) ?
Sa helicase inh: 13; MgrA-DNA mod: -1.2

How did Cc1cccc(-c2nc(CSCC(=O)NCc3ccccc3)c(C)o2)c1 do in these assays?
Sa helicase inh: 6

What do the screens show for `CCOCCOc1ccc2oc(C(=O)CC(=O)OCC)cc(=O)c2c1`?
MgrA-DNA mod: -3.9

Results for O=C(OCC1CC1)c1sc2ccccc2c1Cl ?
Sa helicase inh: 5; MgrA-DNA mod: -1.6

How did O=Nc1c(O)n(CC(=O)Nc2ccccc2)c2ccccc12 do in these assays?
Sa helicase inh: 6; MgrA-DNA mod: 7.8

What do the screens show for `C[C@@H]1C[C@H]2[C@@H]3C[C@H](F)C4=CC(=O)C=C[C@]4(C)[C@@]3(F)[C@@H](O)C[C@]2(C)[C@@]1(O)C(=O)CO`?
MgrA-DNA mod: 3.2

How did O=C1c2ccccc2C(=O)N1C1CCCCC1N1C(=O)c2ccccc2C1=O (centres undefined) do in these assays?
Sa helicase inh: -12

Results for COc1cccc(C2(O)CCN(C(=O)C3CCC3)CC2)c1 ?
Sa helicase inh: -5; MgrA-DNA mod: 2.6

What do the screens show for `COC(=O)C1=C(C)NC(SCC(=O)c2cccs2)=C(C#N)C1c1ccc2c(c1)OCCO2` (centres undefined)?
Sa helicase inh: -1; MgrA-DNA mod: 2.3

What do the screens show for `COc1ccccc1N1CC(C)(C)C(=O)NC1=S`?
MgrA-DNA mod: 1.2

What do the screens show for `CCCc1nc2nc(C)cc(Cl)n2n1`?
Sa helicase inh: 17; MgrA-DNA mod: -0.8

What do the screens show for `COc1cc(C(=O)OCC(=O)NC2CCS(=O)(=O)C2)ccc1OCc1c(C)noc1C` (centres undefined)?
Sa helicase inh: 10

How did Cc1cnc(NC(=O)C(C)N2CCN(C)CC2)s1 (centres undefined) do in these assays?
Sa helicase inh: 8; MgrA-DNA mod: 8.8

What do the screens show for `Cc1ccccc1Nc1nc(N)nc(COC(=O)CCN2C(=O)C3CC=CCC3C2=O)n1` (centres undefined)?
Sa helicase inh: -5

How did N#CCCC1C(=O)CCCC1=O do in these assays?
MgrA-DNA mod: -1.6

How did Oc1ccccc1C/C=C/c1ccccc1 do in these assays?
Sa helicase inh: 3

How did C=CCNC(=O)c1cc2cccc(OC)c2oc1=O do in these assays?
Sa helicase inh: 2

Results for CC(C)c1ccc(-c2ncc(CSc3nnc(CN4CCCCCC4=O)o3)s2)cc1 ?
Sa helicase inh: -1

What do the screens show for `Cc1ccc(Cn2c(=O)cc(C(=O)NC3CCCCC3)c3ccccc32)cc1`?
Sa helicase inh: -3; MgrA-DNA mod: 1.6

Results for Cc1ccc(S(=O)(=O)N2CCCCC2)cc1 ?
MgrA-DNA mod: -0.8

What do the screens show for `CCOC(=O)c1c(-c2ccc(Cl)cc2)nn2c1NCN(Cc1cccc(OC)c1)C2`?
Sa helicase inh: 7

How did O=C(NCCc1ccccc1)c1nn2c(c1Br)NC(c1cccs1)CC2C(F)(F)F (centres undefined) do in these assays?
MgrA-DNA mod: 3.4

How did COc1ccc(/C=C2/C(=O)c3ccc(C(=O)O)cc3C2=O)cc1OC do in these assays?
Sa helicase inh: 13; MgrA-DNA mod: -1.2

What do the screens show for `OC(c1ccccc1)c1nc2ccccc2s1` (centres undefined)?
Sa helicase inh: 16

What do the screens show for `O=C(NCCC1=CCCCC1)C1CC(O)CN1C(=O)Nc1ccccc1` (centres undefined)?
Sa helicase inh: 1; MgrA-DNA mod: 2.2

What do the screens show for `O=C(O)CCNS(=O)(=O)c1ccc2ccccc2c1`?
Sa helicase inh: 6; MgrA-DNA mod: -2.5

What do the screens show for `O=C(CSc1nncs1)NC1CCCc2ccccc21` (centres undefined)?
Sa helicase inh: -2

Results for CC1CCCCC1NC(=O)C1CCN(C(=O)c2cc3sccc3n2Cc2ccc(F)cc2)CC1 (centres undefined) ?
Sa helicase inh: 4; MgrA-DNA mod: -1.2

How did CC(C)C(CC(=O)O)N1Cc2ccccc2C1=O (centres undefined) do in these assays?
MgrA-DNA mod: -0.9

What do the screens show for `CCOc1ccc(NC(=O)COC(=O)CCC2CCCCC2)cc1`?
Sa helicase inh: 14; MgrA-DNA mod: -2.7

Results for CCC1(C)CC(=O)N(c2ccc(C(=O)O)c(O)c2)C1=O (centres undefined) ?
Sa helicase inh: -11; MgrA-DNA mod: 2.1

What do the screens show for `O=C(Nc1ccc(S(=O)(=O)Nc2ccccc2Oc2ccc(Cl)cc2Cl)cc1)C1CC1`?
MgrA-DNA mod: 0.9

Results for O=C(Nc1cccc(-c2cnco2)c1)C1COc2ccccc2O1 (centres undefined) ?
MgrA-DNA mod: -7.5

How did COc1ccc(NC(=O)CCCn2c(=O)c3sccc3n(Cc3ccccc3F)c2=O)cc1 do in these assays?
Sa helicase inh: 5

Results for COC(=O)c1ccc(COC(=O)CCc2nc3ccccc3s2)o1 ?
Sa helicase inh: -5

How did CCOc1cc(/C=C/C(=O)C2C(=O)C=C(C)OC2=O)ccc1OC (centres undefined) do in these assays?
Sa helicase inh: -193

Results for CCOC(=O)c1cc(OC(C)=O)c2ccc(OC)c(OC)c2c1 ?
MgrA-DNA mod: -1.8

How did CC(C)C[C@@H](C=O)NC(=O)[C@H](CC(C)C)NC(=O)[C@H](CC(C)C)NC(=O)OCc1ccccc1 do in these assays?
MgrA-DNA mod: 2.7

What do the screens show for `O=C(c1ccco1)N(Cc1ccccc1O)c1ccc(Cl)cc1`?
Sa helicase inh: 13; MgrA-DNA mod: 6.2

Results for COc1cccc(C2C3=C(CC(C)(C)CC3=O)OC3=C2C(=O)CC(C)(C)C3)c1OCc1ccccc1Cl ?
MgrA-DNA mod: 0.1

Results for CCC1C(=O)N=C(SCC(=O)Nc2ccc(C(=O)OC)cc2)NC1=O (centres undefined) ?
Sa helicase inh: -11

How did CN1C(=O)c2ccc(C(=O)NCc3ccccc3)cc2C1=O do in these assays?
Sa helicase inh: -14; MgrA-DNA mod: -1.9

Results for Brc1ccccc1-c1nnc2sc(-c3cccs3)nn12 ?
Sa helicase inh: 6

How did O=C(NCc1ccccc1)C1CCN(c2nc3ccc(Br)cc3s2)CC1 do in these assays?
Sa helicase inh: 18

How did CCn1c(SCC(=O)Nc2cccc(Cl)c2Cl)nc2ccccc2c1=O do in these assays?
Sa helicase inh: 5; MgrA-DNA mod: -0.7

What do the screens show for `O=C(/C=C/c1ccccc1)N1CCCC1`?
Sa helicase inh: 4; MgrA-DNA mod: -0.5

How did CC1(C)CC(=O)C=C(Sc2nc3cc(Cl)ccc3s2)C1 do in these assays?
MgrA-DNA mod: 7.0

What do the screens show for `Cc1cc(SCC(N)=O)n2c(nc3ccccc32)c1C#N`?
Sa helicase inh: 3

Arranged by SMILES length (low to high): some entries from above
What do the screens show for `O=C(/C=C/c1ccccc1)N1CCCC1`?
Sa helicase inh: 4; MgrA-DNA mod: -0.5

Results for Brc1ccccc1-c1nnc2sc(-c3cccs3)nn12 ?
Sa helicase inh: 6

What do the screens show for `Cc1cc(SCC(N)=O)n2c(nc3ccccc32)c1C#N`?
Sa helicase inh: 3

Not all compounds are listed; count on the stated rates, not on these rows.
